Screening results as filed in PubChem BioAssay.
AmpC inh no det: blocks E. coli AmpC beta-lactamase in absence of detergent; P00811; AmpC nitrocefin hydrolysis, absorbance 480 nm, no detergent; potencies from a single point are estimates; Potency, µM (titrated, usually from 28.7 µM), without a hit: top-dose activity change, negative = inhibition; 71,000 tested, 1.8% active; AID 585; active = falling curve, for most hits resting on a single point; inconclusive = weak or doubtful change; inactive = flat or rising curve; also: % of control where 0% means no effect; about half of the hits show no inhibition at the top dose; a quarter of the inactives give rising signals
Target sequence (P00811 whole entry, looked up): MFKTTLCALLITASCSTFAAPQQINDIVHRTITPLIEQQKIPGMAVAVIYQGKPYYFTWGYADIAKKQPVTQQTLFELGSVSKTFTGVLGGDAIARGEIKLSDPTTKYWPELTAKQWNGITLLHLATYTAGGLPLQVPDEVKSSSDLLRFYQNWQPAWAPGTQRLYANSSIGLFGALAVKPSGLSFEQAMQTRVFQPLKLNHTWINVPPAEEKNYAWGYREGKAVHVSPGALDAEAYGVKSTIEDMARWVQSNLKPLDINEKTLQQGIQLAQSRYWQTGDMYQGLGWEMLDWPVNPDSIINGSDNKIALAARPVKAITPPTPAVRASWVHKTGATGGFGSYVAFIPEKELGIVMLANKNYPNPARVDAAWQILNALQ
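AmpC, 20 mM phosphate pH 7.0; 15 min cpd preinc, RT; start with nitrocefin (800 uM stock); A480 kinetic read, 20 s intervals, 4 min. No-enzyme wells = negative control.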
* marks the source's active call; other numbers are inactive results; u = inconclusive; [ ] = remark or other dose. Potency is read from the fitted curve at half-maximal effect. An excerpt. The share of hits here may be higher or lower than overall.

Start of the data: the first seven records, ahead of the listing:
SMILES	AmpC inh no det
COc1ccc(S(=O)(=O)Nc2ccc3oc(C)c(C(=O)O)c3c2)cc1	-11%
COc1cc(C(=O)O)ccc1OCC(=O)N1CCOCC1	-3%
COC(=O)c1ccc(OC)c(CSc2nnc(COc3ccccc3)o2)c1	24%
CN1CCN(Cc2nc3c(c(=O)n(C)c(=O)n3C)n2Cc2cccc3ccccc23)CC1	44%
CC(=O)Nc1nc(NC(C)=O)c2[nH]c(CO)nc2n1	2%[5.75 µM]
CCOc1ncccc1C(=O)OCCN1C(=O)c2ccccc2C1=O	15%
Cn1c(=O)c2c(nc(SCc3nn[nH]n3)n2Cc2ccccc2F)n(C)c1=O	4%

Main list (from the top)
SMILES	AmpC inh no det
COc1ccc(S(=O)(=O)Nc2ccc3oc(C)c(C(=O)O)c3c2)cc1	-11%
COc1cc(C(=O)O)ccc1OCC(=O)N1CCOCC1	-3%
COC(=O)c1ccc(OC)c(CSc2nnc(COc3ccccc3)o2)c1	24%
CN1CCN(Cc2nc3c(c(=O)n(C)c(=O)n3C)n2Cc2cccc3ccccc23)CC1	44%
CC(=O)Nc1nc(NC(C)=O)c2[nH]c(CO)nc2n1	2%[5.75 µM]
CCOc1ncccc1C(=O)OCCN1C(=O)c2ccccc2C1=O	15%
Cn1c(=O)c2c(nc(SCc3nn[nH]n3)n2Cc2ccccc2F)n(C)c1=O	4%
COc1ccc(Cc2noc(-c3ccc(OC)c(OC)c3)n2)cc1OC	144%
O=C(O)c1cccc(NC(=O)c2ccccc2)c1	-14%
CCCCOc1ccc(OC(=O)c2cccnc2)cc1	34%
COc1cccc2c(=O)n(CC(=O)Nc3cccc(F)c3)ccc12	5%
CCN1CCc2nc(SCC(=O)Nc3ccc(OC)cc3)c(C#N)cc2C1	6%
O=S(=O)(c1ccccc1)N1CN2CCN(C2)C1	14%
COCC(=O)N(C)C1(c2nnnn2CCOC(=O)Nc2cccc3ccccc23)CCCC1	51%
Cc1c(NC(=O)c2cc(-c3ccc4c(c3)OCO4)on2)c(=O)n(-c2ccccc2)n1C	10%
COc1ccc(Cc2nnc(NS(=O)(=O)Cc3ccccc3)s2)cc1	-15%
CCOC(=O)c1cnc(N(C)C)nc1SC(=N)N	4%[5.75 µM]
Cc1cccc(NS(=O)(=O)c2cccc3cccnc23)n1	-3%
Cc1ccc2cc(S(=O)(=O)NCCCC(=O)O)ccc2c1	-6%
CCSc1nnc(NC(=O)C2(C)Cc3ccccc3C(=O)O2)s1 (stereo unspecified)	-5%
CCOC(=O)c1sc2nc(CSc3nc4ccccc4n3CC)[nH]c(=O)c2c1C	48%
CC(C)NC(=O)Cn1c(SCC(=O)N2CCCCCC2)nc2ccccc21	9%
CCOc1ccccc1-c1nn2c(Cc3ccccc3)nnc2s1	91%
COc1cc2c(cc1OC)C(C(=O)Nc1ccccn1)C(c1cccnc1)N(C)C2=O (stereo unspecified)	2%
Cc1ccc(Cn2nnnc2CN2CCC(n3nnc4cc(C(F)(F)F)ccc43)CC2)cc1	128%

2 entries picked at random from the list so far, as already listed:
SMILES	AmpC inh no det
CCOC(=O)c1cnc(N(C)C)nc1SC(=N)N	4%[5.75 µM]
CCSc1nnc(NC(=O)C2(C)Cc3ccccc3C(=O)O2)s1 (stereo unspecified)	-5%

Part of the list above in order of heavy-atom count, low to high.
SMILES	AmpC inh no det
O=S(=O)(c1ccccc1)N1CN2CCN(C2)C1	14%
CCSc1nnc(NC(=O)C2(C)Cc3ccccc3C(=O)O2)s1 (stereo unspecified)	-5%
COc1ccc(S(=O)(=O)Nc2ccc3oc(C)c(C(=O)O)c3c2)cc1	-11%
CC(C)NC(=O)Cn1c(SCC(=O)N2CCCCCC2)nc2ccccc21	9%
COc1cc2c(cc1OC)C(C(=O)Nc1ccccn1)C(c1cccnc1)N(C)C2=O (stereo unspecified)	2%

(continued)
SMILES	AmpC inh no det
O=C(CCc1ccccc1)Nc1ccncc1	-6%
Fc1ccc2c(c1)nnn2C1CCN(Cc2nnnn2C2CCCCC2)CC1	98%
CC(C)(C#N)Nc1ccccc1	-4%
Cc1ccc(CSC(N)=Nc2ccccc2)cc1C	2%[5.75 µM]
CSc1nnc(-c2ccc(F)cc2)o1	-2%
COc1ccc(OC)c(CN2CCN(C(=O)c3cccc4ccccc34)CC2)c1	110%
CN(CC(=O)N1CCc2ccccc21)S(=O)(=O)c1ccc(Cl)cc1	16%
CCOc1ccccc1NC(=O)CSc1nnc(CNC(=O)c2ccco2)o1	6%
CC(=O)OCCCN1C(=O)c2ccc(Br)cc2C1=O	4%
CN(C(=O)CSc1nc(-c2ccc(F)cc2)cs1)C1CCS(=O)(=O)C1 (stereo unspecified)	33%
Cc1c(Nc2ncnc3nc[nH]c23)c(=O)n(-c2ccccc2)n1C	33%
CCOC(=O)C1=C(C)NC(SCC(=O)O)=NC1c1ccccc1 (stereo unspecified)	5%
COc1cc(C(C)=O)ccc1OCC(O)CN1CCN(S(=O)(=O)c2ccccc2)CC1 (stereo unspecified)	85%
CCOc1ccc(Nc2nc(Cc3nnc(SCC(N)=O)o3)cs2)cc1	18%
O=c1cnc2cnc(Oc3cccc(Cl)c3)nc2n1CCc1ccccc1	18%
CN(C(=O)c1cccc(C#N)c1)c1nnc(C2CCOC2)s1 (stereo unspecified)	1%
CCCn1nnc(NC(=O)c2ccccc2Br)n1	7%
O=C(O)c1ccccc1NS(=O)(=O)c1ccccc1C(F)(F)F	u
Clc1ccc(Oc2cccc(/C=N/n3cnnc3)c2)cc1	81%
CCN(CC)CC(C)CNC(=O)CC(C(=O)N1CCc2ccccc21)n1ccnc1 (stereo unspecified)	-7%
O=C(c1cc2c(s1)CCCCC2)N1CCN(c2ncccn2)CC1	63%
CCOC(=O)C(C(=O)OCC)=C1OC(=O)c2ccccc21	-19%
CCc1ccc(C2CC(c3ccc(C)cc3)n3nc(N)nc3N2)cc1 (stereo unspecified)	21%
CCOC(=O)CC1=NS(=O)(=O)c2ccccc2N1	0%
N#Cc1c(N)nc(SCC(=O)OCc2ccccc2)c(C#N)c1-c1ccco1	-11%
The list goes on:
SMILES	AmpC inh no det
C/C(=C1\SC(N2CCOCC2)=NC1=O)c1ccccc1	20%
COc1ccc(C(=O)COC(=O)CCn2nnc(-c3cccs3)n2)cc1	-6%
Cc1cc(C(=O)Nc2ccccn2)no1	-8%
COc1ccccc1C1/C(=C(/O)c2ccc(Cl)cc2)C(=O)C(=O)N1CCN1CCOCC1 (stereo unspecified)	-5%
CC(C)c1ccc(-c2nn[nH]n2)cc1	-9%
OCC(CO)(CBr)CBr	-11%
O=C(NCc1ccc2c(c1)OCO2)c1cc(S(=O)(=O)N2CCCCC2)ccc1F	-16%
Cn1c(=O)oc2cc(S(=O)(=O)N3CCC(C(=O)N4CC=C(c5ccccc5)CC4)CC3)ccc21	71%
Cc1cc(=O)oc2cc(OCc3ccc(S(=O)(=O)N4CCOCC4)cc3)ccc12	70%
Oc1c(CN2CCN(c3ccccn3)CC2)cc(Cl)c2cccnc12	58%
CN(c1nc(-c2ccccc2)cs1)C1CCS(=O)(=O)C1 (stereo unspecified)	25%
Cc1onc(-c2ccccc2Cl)c1C(=O)Nc1nnc(-c2ccc(F)cc2)s1	23%
N#CCCCSC1=C(C#N)C(c2ccccc2Cl)CC(=O)N1 (stereo unspecified)	17%
CCOc1ccc(NC(=O)c2cccc(-n3cnnn3)c2)cc1	8%
COc1cc(NC(=O)c2cccc(Cl)c2)c(OC)cc1NC(=O)CN1CCOCC1	127%
Cc1cnc(CNc2ncncc2-c2ccc3c(c2)OCO3)cn1	-5%
N[C@@H](CC1=CS(=O)(=O)c2ccc(Cl)cc21)C(=O)O	-11%[5.75 µM]
CC1CCN(CCc2nc3cc(NS(=O)(=O)c4ccccc4)ccc3n2C)CC1	1%
Cc1[nH]c2ccccc2c1C1(O)C(=O)N(Cc2ccc3c(c2)OCO3)c2ccccc21 (stereo unspecified)	22%
CCC(=NCC1CCCO1)c1c(O)n(-c2ccc(Cl)cc2)c(=O)[nH]c1=O (stereo unspecified)	10%
O=C(NCC(=O)N(CC1CCCO1)C(C(=O)NC1CCCC1)c1cccnc1)c1ccco1 (stereo unspecified)	-3%
NS(=O)(=O)c1ccc(NC2(C(=O)O)CCCC2)cc1	-6%[5.75 µM]
COc1ccc2oc(=O)c(C(=O)N3CCN(c4ccccc4C)CC3)cc2c1	75%
CCc1ccc(NC(=O)c2cc(-c3ccco3)on2)cc1	-11%
COc1ccc(CCNc2oc(COc3ccccc3Cl)nc2C#N)cc1OC	51%
(continued)
SMILES	AmpC inh no det
C=CCn1c(SCC(=O)/C(C#N)=C(\C)N)nnc1C1CCCCC1	9%
COC(=O)CSc1nnc(CNC(=O)c2ccc(OC)cc2OC)n1C	4%
CC(C)Cn1c2c(c(O)c(C(=O)Nc3ccc(F)cc3)c1=O)CCCC2	4%
Cc1ccc(NC(=O)c2oc3c(c2C)C(=O)CC(C)(C)C3)cc1	36%
CC(C)=CCC/C(C)=C/C=O	-3%
CCCCSc1nn[nH]n1	-14%
COc1cccc(C(=O)Nc2ccc(N(C)C)cc2)c1OC	-3%
COc1ccc(S(=O)(=O)NCc2ccccn2)cc1Cl	6%
O=C(C1CCCN(c2nnc(-n3cccc3)s2)C1)N1CCC2(CC1)OCCO2 (stereo unspecified)	48%
CC(=O)NC12CC3CC(C1)CC(C(=O)OCC(=O)NC(=O)c1cccn1C)(C3)C2	42%
Cc1ccsc1C1NC(=O)c2ccccc2N1 (stereo unspecified)	-2%
O=C(O)C1CCN(C(=O)c2ccccc2C(=O)N2CCC(C(=O)O)CC2)CC1	1%
CC(=O)C1=C(O)C(=O)N(CCN2CCOCC2)C1c1ccc(N(C)C)cc1 (stereo unspecified)	15%
Cc1ccc(-c2noc(CN3CCC(C(N)=O)CC3)n2)cc1	-4%
Cc1ccc(C(=O)CSc2n[nH]c(-c3ccco3)n2)cc1C	-15%
COc1ccc(/C=N/n2c(SC)nnc2-c2ccccc2)cc1C	139%
O=C(c1ccc2nc(N3CCOCC3)sc2c1)N1CCCC1	18%
COCc1[nH]nc2c1C1(C(=O)N(C)c3ccccc31)C(C#N)=C(N)O2 (stereo unspecified)	0%
O=C(CN1C(=O)C2(OCCCO2)c2ccccc21)NCCc1ccccc1	4%
O=C1CNCCCN2CCN(CCCNCC(=O)Nc3ccc(cc3)S(=O)(=O)c3ccc(cc3)NC(=O)CNCCCN3CCN(CCCNCC(=O)Nc4ccc(cc4)S(=O)(=O)c4ccc(cc4)N1)CC3)CC2	18%[5.75 µM]
Cc1ncc(CO)c(CN)c1O	-1%[5.75 µM]
CCOC(=O)c1ccc2c(c1)C(=O)N(C1CCCCC1)C2=O	-1%
C[n+]1cccc(/C=C\c2ccc3cccc(O)c3n2)c1	6%[5.75 µM]
Nc1c(NC2CCCCC2)c2ccccc2oc1=O	-3%
O=C(c1ccco1)N1CCN(S(=O)(=O)c2ccc(S(=O)(=O)NC3CCCCC3)cc2)CC1	60%
(list continues)
SMILES	AmpC inh no det
COc1cccc(NC(=O)N2CCC(N3CCCCC3)CC2)c1	-14%
Cc1cccn2c(=O)c3cc(C#N)c(=N)n(CCN4CCOCC4)c3nc12	-18%
O/N=C1/CCCCc2sccc21	1%
CCOc1ccc(N(CC(=O)NCC2CCCO2)S(=O)(=O)c2ccc(OC)c(OC)c2)cc1 (stereo unspecified)	99%
c1ccc2c(c1)[nH]c1ccccc12	-13%
c1cncc(CNc2nc(-c3ccc4c(c3)OCO4)nc3ccccc23)c1	38%
COc1ccc(N2CCN(c3nc(NCCO)nc(N4CCOCC4)n3)CC2)cc1	80%
Cc1nc2ccccc2c(=O)n1CC(=O)N1CCOCC1	2%
CCOC(=O)CCCc1sc(N)nc1-c1[nH]c(=O)[nH]c1C	5%
CCCC/C=C/C(NC(=O)c1ccc(C(F)(F)F)cc1)c1ccccc1 (stereo unspecified)	16µM*[single pt active]
Cc1ccc(C(C(=O)NCCc2ccccc2)N(C(=O)c2csnn2)C2CC2)o1 (stereo unspecified)	52%
O=C(COc1ccccc1F)Nc1ccc(S(=O)(=O)NCc2ccco2)cc1	-12%
CC1(C)CC(=O)C(C=NCC2CCNCC2)=C(O)C1	3%
Cc1csc2nc(CNS(=O)(=O)c3cccnc3)cn12	-4%
COc1ccc(-n2c(SCC#N)nc3ccccc3c2=O)cc1	7%
CCOC(=O)c1sc(NC(=O)c2cc(S(=O)(=O)N3CCOCC3)ccc2C)nc1C	102%
CCOc1ccc(C(CC(=O)O)NS(=O)(=O)c2ccc(C)cc2)cc1OC (stereo unspecified)	-3%
COc1ccc(OC)c(N2C(=O)NC(=O)C3(Cc4cc(C)ccc4N(C)C3)C2=O)c1 (stereo unspecified)	2%
Nc1nc(CSCc2ccccc2)nc(N2CCOCC2)n1	13%
O=C(NCCN1CCN(c2ccccc2)CC1)c1cccn2c(=O)c3ccccc3nc12	123%
COCCCn1c(SCC(=O)N2CCc3ccccc32)nnc1-c1ccoc1C	38%
COc1ccc(OCC(O)Cn2c(=N)n(CCN3CCOCC3)c3ccccc32)cc1 (stereo unspecified)	3%
CCOc1ccc(N(CC(=O)NCc2cccc(OC)c2)S(=O)(=O)c2c(C)noc2C)cc1	53%
CN1CCN(C(=O)C2CCC(CNS(=O)(=O)c3cccc4cccnc34)CC2)CC1 (stereo unspecified)	34%
CC(C)NC(=O)C1CCN(C(=O)C(C(=O)c2ccccc2)n2cc(Cl)ccc2=O)CC1 (stereo unspecified)	43%
C#CCNc1nc(C)nc2c1nnn2Cc1ccccc1F	7%

Part of the list above in a different format.
O=C(COc1ccccc1F)Nc1ccc(S(=O)(=O)NCc2ccco2)cc1
- AmpC inh no det: -12%
CC1(C)CC(=O)C(C=NCC2CCNCC2)=C(O)C1
- AmpC inh no det: 3%
Cc1csc2nc(CNS(=O)(=O)c3cccnc3)cn12
- AmpC inh no det: -4%
COc1ccc(-n2c(SCC#N)nc3ccccc3c2=O)cc1
- AmpC inh no det: 7%
